MLL AF4-AF9 inh = inhibitors of human MLL-AF4/AF9 interaction; P42568; AlphaScreen, biotin-AF4 peptide binding to FLAG-AF9; inhibition, % at 10 µM; 0.47% of 350,000 active;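 active = every replicate reaching a set inhibition limit, whatever the replicate mean, cut at about 25% in these data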;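 note: 0% = plate neutral control median and 100% = total signal loss; the record names both 10 and 1 µM as test concentration; the first replicate is given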
Target sequence (P42568 whole entry, looked up): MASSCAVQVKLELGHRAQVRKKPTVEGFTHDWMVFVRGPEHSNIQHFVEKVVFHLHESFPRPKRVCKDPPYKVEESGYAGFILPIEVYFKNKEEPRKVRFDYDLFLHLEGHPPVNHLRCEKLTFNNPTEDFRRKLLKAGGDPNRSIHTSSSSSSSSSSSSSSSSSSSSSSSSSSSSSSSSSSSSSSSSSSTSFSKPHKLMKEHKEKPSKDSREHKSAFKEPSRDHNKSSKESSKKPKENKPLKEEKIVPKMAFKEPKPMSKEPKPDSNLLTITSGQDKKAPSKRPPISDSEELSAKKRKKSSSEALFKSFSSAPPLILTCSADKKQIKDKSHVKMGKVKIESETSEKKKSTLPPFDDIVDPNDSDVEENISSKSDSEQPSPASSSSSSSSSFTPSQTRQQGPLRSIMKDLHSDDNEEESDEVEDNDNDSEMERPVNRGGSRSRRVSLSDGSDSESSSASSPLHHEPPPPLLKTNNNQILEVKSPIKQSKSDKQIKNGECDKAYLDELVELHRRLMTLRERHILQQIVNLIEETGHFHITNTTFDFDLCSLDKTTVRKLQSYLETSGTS
rRNA inh HTS = inhibits bacterial ribosomal RNA function over humanized ribosomes; E. coli WT GFP vs humanized-ribosome RFP mutants, fluorescence, 24 h; stronger effect = lower value; DMSO median 0, no signal -100; GFP signal change (wild-type ribosome), % (test concentration not listed); 1.6% of 350,000 active; AID 720706;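 active = significant combined selectivity score with lowered wild-type GFP, culture density cut under 30%, mutant RFP and density less affected; inactive = any of these conditions unmet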; note: one replicate is shown; some compounds called inactive have numbers as strong as hits
FGF22 binding = shifts melting point of recombinant human FGF22; recombinant FGF22 thermal shift, SYPRO orange fluorescence; percent of sucrose octasulfate shift, DMSO zero; 1.5% of 340,000 active; AID 651658; calls only at 9.99 µM; Q9HCT0;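 active = melting point raised past a set limit in the mean and every replicate; three in four hits are not shown here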
Target sequence (Q9HCT0 whole entry, looked up): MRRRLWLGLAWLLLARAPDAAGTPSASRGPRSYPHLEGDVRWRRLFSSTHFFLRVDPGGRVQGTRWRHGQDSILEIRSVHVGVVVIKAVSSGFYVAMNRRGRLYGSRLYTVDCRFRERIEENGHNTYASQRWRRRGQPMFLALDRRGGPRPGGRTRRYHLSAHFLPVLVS
rRNA inh HTS OD600 = second read-out of rRNA inh HTS, no call of its own (marks repeat the call); OD600 change, %; measured here: OD600 growth;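 optical density of the mix in the first replicate; 0 = DMSO median and -100 = no signal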
rRNA inh HTS RFP = further read-out of rRNA inh HTS, marked with its call; RFP signal change, %; measured here: RFP humanized mutant strains;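 first replicate; 0 = DMSO median and -100 = no signal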
The depositor's hits bear a star; i = inactive; + = active, no number. An excerpt, so the mix of outcomes need not match the whole.

SMILES	MLL AF4-AF9 inh	rRNA inh HTS	rRNA inh HTS OD600	rRNA inh HTS RFP	FGF22 binding
COc1ccc2c3c(n(C)c2c1)[C@H](CO)N(C(=O)CN1CCOCC1)CC31CN(C(=O)CC2CC2)C1	1.2	2.3	5.6	-2.6	i
CCCC(=O)Nc1ccc2c(c1)OC[C@H](C)N(C(=O)CC)C[C@H](C)[C@H](OC)CN(C)C2=O	-2.8	-1.1	-1.7	0.7	i
C[C@@H]1CN([C@@H](C)CO)C(=O)c2cccc(NC(=O)Nc3ccccc3)c2O[C@@H]1CN(C)C(=O)Nc1cccc2ccccc12	0.4	-0.4	-5.6	3.6	i
O=C(Cc1ccncc1)Nc1ccc2c(c1)[C@@H]1C[C@H](CC(=O)NC3CCCCC3)O[C@@H](CO)[C@@H]1O2	1.0	-3.2	2.1	-3.9	i
COCCNC(=O)C[C@@H]1CC[C@@H](NC(=O)NC2CCCCC2)[C@H](CO)O1	-1.2	-0.5	-2.7	-3.3	i
NC(COCc1ccccc1)c1csc(Nc2ccc(C(=O)c3ccccc3)cc2)n1 (configuration not stated)	2.2	-52.0	-79.5	-15.5	i
COc1ccc(-c2coc3c(C(=O)NCC4CCOCC4)cccc23)c(C)c1	-0.6	-58.1	-73.3	-10.7	i
CC(C)[C@H](NC(=O)c1cccc(S(=O)(=O)N2CCOCC2)c1)C(=O)OCC(=O)Nc1cccc(Br)c1	0.6	0.3	-13.6	5.6	i
C[C@@H]1CN([C@@H](C)CO)C(=O)c2cc(NS(=O)(=O)c3ccc(Cl)cc3)ccc2O[C@@H]1CN(C)S(=O)(=O)c1cn(C)cn1	-1.8	2.5	-0.5	-1.6	i
COc1ccc(NC(=O)Nc2ccc3c(c2)C(=O)N([C@H](C)CO)C[C@H](C)[C@@H](CN(C)CC2CCCCC2)O3)cc1	5.2	1.0	-3.6	-1.5	i
O=C(Nc1ccc2c(c1)[C@@H]1C[C@@H](CC(=O)N3CCc4ccccc4C3)O[C@@H](CO)[C@@H]1O2)Nc1ccccc1F	5.5	-5.6	-31.8	13.7	i
COc1ccc2c3c([nH]c2c1)[C@H](CO)N(C)CC31CCN(S(=O)(=O)c2cn(C)cn2)CC1	2.8	2.5	-0.4	0.6	i
C[C@@H]1CN([C@@H](C)CO)C(=O)c2cc(NC(=O)Nc3ccccc3)ccc2O[C@H]1CN(C)C(=O)Nc1ccccc1	-0.7	-1.9	6.3	-2.9	i
CC(=O)N(C)C[C@@H]1Oc2cc(C#Cc3ccccc3)ccc2S(=O)(=O)N([C@@H](C)CO)C[C@@H]1C	3.6	-0.9	-15.2	6.8	i
C[C@@H]1CCCCO[C@@H](CN(C)S(=O)(=O)c2ccccc2)[C@@H](C)CN([C@@H](C)CO)C(=O)c2cc(NS(=O)(=O)c3cn(C)cn3)ccc2O1	-1.0	4.0	6.2	-1.4	i
CCCS(=O)(=O)NC(=O)C1(C)CCCN(C(=O)c2c(OC)cccc2OC)C1 (configuration not stated)	-24.0	5.3	13.0	0.5	i
CN(C(=O)c1cccc(NC(=O)Cc2ccc(NC(=O)C3CCCN(S(=O)(=O)c4cccc([N+](=O)[O-])c4)C3)cc2)c1)C1CCCCC1 (configuration not stated)	1.4	10.8	8.4	0.4	i
CCOC(=O)C1C(=O)C(=O)N(Cc2ccccc2)C1C(=O)OCC (configuration not stated)	-6.1	2.7	1.4	2.8	i
Cc1nnc2ccc(-c3ccc(NS(=O)(=O)c4ccccc4)cc3)nn12	0.7	12.0	10.9	5.9	i
CC(C)Oc1ccc(S(=O)(=O)N2CCOCC2)cc1NC(=O)c1cccc(S(=O)(=O)N2CCCC2)c1	3.4	-6.4	-4.5	-1.4	i
CCCC#Cc1cnc2c(c1)C(=O)N([C@H](C)CO)C[C@H](C)[C@H](CN(C)C(=O)Cc1ccncc1)O2	-0.9	1.5	1.8	1.8	i
CN1CCN(C(=O)C[C@@H]2CC[C@H]3[C@@H](COC[C@@H](O)CN3S(=O)(=O)c3cccc(F)c3)O2)CC1	-25.9	-2.2	-1.4	-1.2	i
Cn1c(N)c(C(=O)N2CCN(c3ccccc3)CC2)c(=O)n(C)c1=O	-0.2	6.4	14.7	-5.5	i
COc1ccc(NC(=O)Nc2ccc3c(c2)[C@@H]2C[C@@H](CC(=O)NCc4ccccn4)O[C@H](CO)[C@@H]2O3)cc1	-5.2	-3.1	-2.6	-0.2	i
O=C(C[C@@H]1C=C[C@@H](NC(=O)CN2CCOCC2)[C@@H](CO)O1)NC1CCCCC1	-1.5	1.2	-4.2	3.6	i
O=C(C[C@@H]1CC[C@H]2[C@@H](COC[C@H](O)CN2Cc2ccc(Cl)cc2)O1)Nc1nccs1	5.6	-0.6	-13.3	4.0	i
COCCNC(=O)c1cccc2c(-c3cnn(C)c3)coc12	0.8	14.5	15.6	0.9	+
C[C@@H]1CN([C@@H](C)CO)C(=O)c2cccc(NS(=O)(=O)c3cn(C)cn3)c2O[C@@H]1CN(C)C(=O)Nc1ccc(F)cc1	-3.7	-1.4	5.9	-0.7	i
COCC(=O)Nc1ccc2c(c1)C(=O)N(C)[C@H]1CC[C@@H](CC(=O)NCCCN(C)C)O[C@@H]1CO2	-14.9	2.7	12.0	-1.5	i
CC=Cc1ccc2n(c1=O)C[C@H]1[C@H](CO)[C@@H](C(=O)N(C)C)N(CC3CCOCC3)[C@@H]21 (mixture of isomers)	-1.2	-0.6	-1.5	-1.0	i
O=C(NCC1CC1)[C@@H]1[C@@H](CO)[C@@H]2Cn3c(ccc(-c4ccccc4F)c3=O)[C@H]1N2Cc1ccncc1	-5.2	3.0	2.6	-2.7	i
O=C(C[C@H]1CC[C@H]2[C@@H](COC[C@@H](O)CN2Cc2cccc(F)c2)O1)NCCc1ccncc1	-1.2	-5.0	-0.6	-2.4	i
COc1ccc(NC(=O)Nc2ccc3c(c2)C(=O)N([C@H](C)CO)C[C@H](C)[C@H](CN(C)Cc2ccncc2)OCCCC[C@H](C)O3)cc1	6.0	-2.2	-4.5	1.2	i
C/C=C/c1ccc2c(c1)O[C@@H](CN(C)C(=O)NC(C)C)[C@H](C)CN([C@@H](C)CO)S2(=O)=O	0.3	-0.1	-2.4	-2.4	i
C[C@@H]1CN([C@@H](C)CO)C(=O)c2cccc(NS(=O)(=O)c3ccc(F)cc3)c2O[C@@H]1CN(C)Cc1ccccc1	-0.2	-1.4	-5.5	1.6	i
Cc1ccc(N(CC(=O)NC(C)C)C(=O)CCC(=O)Nc2ccccn2)c(C)c1	6.4	11.9	22.0	0.7	i
O=C(CC1CC1)N[C@@H]1CC[C@H](CCNS(=O)(=O)c2ccc(Cl)cc2)O[C@H]1CO	-0.8	0.9	5.0	-0.6	i
C[C@H]1CN([C@@H](C)CO)S(=O)(=O)c2ccc(C#CCN(C)C)cc2O[C@H]1CN(C)S(C)(=O)=O	-0.3	1.1	6.2	-4.4	i
CC(C)NC(=O)N(C)C[C@@H]1OCCCC[C@H](C)Oc2ccc(NS(=O)(=O)c3ccc(F)cc3)cc2C(=O)N([C@@H](C)CO)C[C@@H]1C	-1.0	3.0	-6.6	0.9	i
Cc1ccccc1S(=O)(=O)N1C[C@H](O)COC[C@H]2O[C@H](CC(=O)NCc3ccccc3Cl)CC[C@@H]21	2.1	1.8	-2.5	2.2	i
COc1ccc2c3c([nH]c2c1)[C@@H](CO)N(CC1CC1)CC31CCN(C(=O)NC2CCCC2)CC1	-6.2	-2.5	-8.7	-0.2	i
Cc1ccc(S(=O)(=O)N2C[C@H](O)COC[C@H]3O[C@@H](CC(=O)N[C@H]4CCN(Cc5ccccc5)C4)CC[C@@H]32)cc1	-1.9	4.5	6.3	-3.9	i
O=C(O)c1ccc([N+](=O)[O-])cc1	-2.9	2.6	6.0	-1.5	i
CC=Cc1ccc2n(c1=O)C[C@@H]1[C@@H](CO)[C@H](C(=O)NCCc3ccccc3)[C@H]2N1C (mixture of isomers)	1.1	1.8	2.7	-2.0	i
COc1ccc(NC(=O)N(C)C[C@@H]2Oc3ccc(NS(C)(=O)=O)cc3CC(=O)N([C@@H](C)CO)C[C@@H]2C)cc1	-5.2	4.3	4.8	1.6	i
C[C@@H]1CN([C@H](C)CO)C(=O)c2cccc(NC(=O)Nc3ccc(F)cc3)c2O[C@@H]1CN(C)Cc1ccc(C(=O)O)cc1	2.3	2.3	6.1	-2.5	i
COC(=O)[C@H](Cc1ccccc1)NC(=O)Cn1cnc(C(=O)Nc2ccc(C)c(C)c2)n1	-2.2	3.9	17.8	4.4	i
CC(C)C#Cc1cnc2c(c1)C(=O)N([C@@H](C)CO)C[C@@H](C)[C@@H](CN(C)C(=O)Nc1ccccc1)O2	-0.8	-5.8	8.2	-1.8	i
C[C@H](CO)N1C[C@H](C)[C@H](CN(C)Cc2ccc(C(=O)Nc3ccccc3N)cc2)Oc2ccc(NC(=O)Nc3ccc4c(c3)OCO4)cc2C1=O	0.6	-1.3	-1.6	1.6	i
Cc1ccc(S(=O)(=O)Nc2ccc3c(c2)C(=O)N([C@@H](C)CO)C[C@H](C)[C@@H](CN(C)Cc2ccc(Cl)c(Cl)c2)O3)cc1	3.4	-0.3	7.1	-2.1	i
CCC(=O)Nc1ccc2c(c1)C(=O)N(C)C[C@@H](OC)[C@H](C)CN(CC1CC1)[C@H](C)CO2	-1.1	0.1	0.6	1.7	i
COc1ccc2c3c([nH]c2c1)[C@@H](CO)N(C(=O)CC1CC1)CC31CN(Cc2ccncc2)C1	15.2	-2.8	-0.7	-0.1	i
C=CCOC1COC2C(OCC=C)COC12 (configuration not stated)	5.2	6.7	5.3	0.1	i
CC1=CC(=O)Nc2cncnc2N1	0.5	7.6	14.9	0.6	i
CO[C@H]1CN(C)C(=O)c2cc(NC(=O)CC(F)(F)F)ccc2OC[C@@H](C)N(C(=O)C2CCOCC2)C[C@H]1C	2.2	0.5	-2.0	0.5	i
Nc1nc2ccc(Br)cc2o1	1.7	10.9	-10.8	20.0	i
COc1cccc(S(=O)(=O)Nc2ccc3c(c2)[C@H]2C[C@@H](CC(=O)NC4CCCCC4)O[C@@H](CO)[C@H]2O3)c1	-2.7	-6.8	-13.3	1.5	i
COc1cccc(S(=O)(=O)N2CCCCN3[C@@H](CO)[C@@H](c4ccc(C5=CCCCC5)cc4)[C@@H]3C2)c1	8.0	-30.0	-29.2	0.4	i
N#Cc1cccc(NC(=O)c2cc(C3CCCCN3C(=O)c3ccccn3)on2)c1 (configuration not stated)	-10.0	10.8	14.5	0.9	i
COCC(=O)N1C[C@@H](C)[C@@H](OC)CN(C)C(=O)c2cc(NC(=O)C3CCC3)ccc2OC[C@H]1C	-0.1	3.2	4.0	-2.4	i

Arranged by heavy-atom count (falling): eight of the compounds above.
SMILES	MLL AF4-AF9 inh	rRNA inh HTS	rRNA inh HTS OD600	rRNA inh HTS RFP	FGF22 binding
C[C@H](CO)N1C[C@H](C)[C@H](CN(C)Cc2ccc(C(=O)Nc3ccccc3N)cc2)Oc2ccc(NC(=O)Nc3ccc4c(c3)OCO4)cc2C1=O	0.6	-1.3	-1.6	1.6	i
C[C@@H]1CN([C@H](C)CO)C(=O)c2cccc(NC(=O)Nc3ccc(F)cc3)c2O[C@@H]1CN(C)Cc1ccc(C(=O)O)cc1	2.3	2.3	6.1	-2.5	i
CC(C)C#Cc1cnc2c(c1)C(=O)N([C@@H](C)CO)C[C@@H](C)[C@@H](CN(C)C(=O)Nc1ccccc1)O2	-0.8	-5.8	8.2	-1.8	i
COCC(=O)N1C[C@@H](C)[C@@H](OC)CN(C)C(=O)c2cc(NC(=O)C3CCC3)ccc2OC[C@H]1C	-0.1	3.2	4.0	-2.4	i
COC(=O)[C@H](Cc1ccccc1)NC(=O)Cn1cnc(C(=O)Nc2ccc(C)c(C)c2)n1	-2.2	3.9	17.8	4.4	i
CCC(=O)Nc1ccc2c(c1)C(=O)N(C)C[C@@H](OC)[C@H](C)CN(CC1CC1)[C@H](C)CO2	-1.1	0.1	0.6	1.7	i
N#Cc1cccc(NC(=O)c2cc(C3CCCCN3C(=O)c3ccccn3)on2)c1 (configuration not stated)	-10.0	10.8	14.5	0.9	i
Nc1nc2ccc(Br)cc2o1	1.7	10.9	-10.8	20.0	i

Additional compounds.
SMILES	MLL AF4-AF9 inh	rRNA inh HTS	rRNA inh HTS OD600	rRNA inh HTS RFP	FGF22 binding
OC[C@@H]1CN(Cc2ccc3c(c2)OCO3)C[C@H](n2cnc3c(NCc4ccncc4)ncnc32)O1	-2.0	9.7	14.0	2.8	i
C[C@H](O)C#Cc1cnc2c(c1)C(=O)N([C@H](C)CO)C[C@@H](C)[C@@H](CN(C)Cc1cncnc1)O2	-2.8	4.1	7.5	-2.0	i
Cc1ccsc1CN(C)CC(=O)N(C)CC(=O)Nc1c(Cl)cccc1Cl	1.3	0.8	-1.6	1.5	i
COc1ccc(NC(=O)COC(=O)CNC(=O)COc2ccccc2)cc1OC	-1.2	8.8	9.3	-1.2	i
O=C(Nc1cc(F)ccc1F)N1CC(=O)N2[C@H](CO)[C@@H](c3ccc(C#CC4CCCCC4)cc3)[C@H]2C1	4.2	1.2	-13.6	3.3	i
C[C@H]1CN([C@@H](C)CO)C(=O)Cc2cc(NC(=O)Nc3ccccc3)ccc2O[C@H]1CN(C)C(=O)Nc1ccc2c(c1)OCO2	-1.5	1.5	8.0	1.9	i

Screening results from PubChem.
